From PubChem BioAssay
VACV mCherry inh: vaccinia inhibition (mCherry reporter) | actives 0.63% (n = 310,000) | Vaccinia virus mCherry reporter infection, fluorescence; about a quarter of the inactives have no number | Potency, µM (highest dose often 36.5 µM), for inactives: at the top dose activity change, negative = inhibition, hits mostly inhibitors; active = well fitted inhibition curve with a large enough effect; inconclusive = small, poorly fitted or top-dose-only effect; inactive = no such curve, though single readings can be large or run the other way; tested in A549 cells; also: nearly all actives have a fitted effect of over 35% in size; inactives centre near -10
VACV Venus inh: vaccinia inhibition (Venus reporter); Vaccinia virus Venus reporter expression, fluorescence; Potency, µM (doses to about 36.5 µM), inactives show at the highest dose activity change, negative = inhibition, most hits filed as inhibitors; actives 0.46% (n = 330,000); active means well fitted inhibition curve with a large enough effect; inconclusive means small, poorly fitted or top-dose-only effect; inactive means no such curve, though single readings can be large or run the other way; tested in A549 cells; also: nearly all actives have a fitted effect of over 30% in size; inactives centre near -10
* hit, by the source's call; i = inactive; ? = inconclusive; . = no result given; & = joins results of further samples; [ ] = remark or other dose. % is scaled to controls: 0 for no effect and ±100 for the full control effect; potency is read from the fitted curve at half-maximal effect. Rows were taken by chance; any-hit rate near 0.86%.

SMILES | VACV mCherry inh | VACV Venus inh
CC(OC(=O)CC1Sc2ccccc2NC1=O)C(=O)N(C)Cc1ccccc1 (stereo not given) | ? | -18%
Cc1ccc(CNc2ncnc3c2cnn3-c2ccc(C)cc2C)cc1 | -14% | -1%
O=C(Nc1ccc(C(=O)N2CCN(c3ccccc3F)CC2)cc1)c1nsc2ccccc12 | -4% | -8%
CC(CNC(=O)CCS(=O)(=O)c1cc2c(cc1Cl)NC(=O)CO2)c1ccccc1 (stereo not given) | -6%&-9% | 1%&-2%
CC(=O)C1C(c2ccc(F)cc2)c2c(noc2C)CC1(C)O (stereo not given) | i | -9%
N#CCc1ccc(NC(=O)Cn2c(=O)oc3ccccc32)cc1 | -8% | 1%
N#Cc1cc(-c2ccccc2)nnc1Sc1ccccc1 | . | -5%
CN(C)/C=C/C(=O)c1cnc(-c2ccc(Cl)cc2)s1 | -5% | -2%
CN(C)CC(C)(C)CNC(=O)c1cnn(-c2nccc(-c3ccc4c(c3)OCO4)n2)c1-c1ccco1 | -8% | 4%
Cc1ccc(-c2nn(CC(=O)NCc3cc(-c4nn(C)c(=O)c5ccccc45)ccc3C)c(=O)c3ccccc23)cc1 | ? | ?
COc1ccc(OCC#CCNC(C)(C)C)cc1 | i | -14%
O=C1c2ccccc2C(c2nnnn2-c2ccc3c(c2)OCCO3)N1Cc1ccco1 (stereo not given) | -11% | -5%
CC(=O)c1ccc(NC(=O)Cn2cc(S(=O)(=O)Cc3ccccc3Cl)c3ccccc32)cc1 | -9% | 1%
CC(C)CNC(=S)NC1CC2CCC(C1)N2Cc1ccccc1 (stereo not given) | -20% | -21%
COc1cc2c(cc1OC)C(=O)CCC2 | -7% | -1%
COCCOc1cc(NC(=O)c2cccc(OC)c2)c(Cl)cc1Cl | 2% | 4%
Cn1ncc(Cl)c1C(=O)N1CCOCC1 | -4% | -6%
COc1ccc(Cl)cc1NC(=O)CNC(c1ccccc1)c1ccccc1 | -19% | -17%
Cc1cccc(NC(=O)CCN2C(=O)c3ccccc3C2=O)n1 | i | -11%
O=C(NC1(C(F)(F)F)N=C2SCCN2C1=O)c1ccco1 (stereo not given) | -8% | -5%
COCCCNC(=O)c1ccccc1Oc1ccccc1 | . | -8%
CCc1ccc(C(=O)C(C)OC(=O)CNS(=O)(=O)c2ccc(C)cc2)cc1 (stereo not given) | i | -20%
CN(C)c1ccc(C(C(=O)NCC2CCCO2)N(Cc2ccco2)C(=O)c2snc(C(N)=O)c2N)cc1 (stereo not given) | i | -7%
CCC(=O)Nc1ccc(C(=O)NNC(=O)COc2cccc(C)c2)cc1 | -9% | -10%
CCc1nnc(NS(=O)(=O)c2ccc(NC(=O)COc3ccc(Cl)c(C)c3)cc2)s1 | i | 1%
C[C@H]1CN([C@@H](C)CO)C(=O)CCCn2cc(nn2)CO[C@@H]1CN(C)S(C)(=O)=O | -11% | -13%
Cn1c(C(=O)NCc2cccnc2)cc2sccc21 | i | -8%
CCN(CCCNC(=O)C1CCN(S(=O)(=O)N2CCOCC2)CC1)c1cccc(C)c1 | . | -17%
CN(C)CCNC(=O)c1cc2c(s1)-c1ccccc1OC2 | -26% | ?
NS(=O)(=O)c1ccc(NC(=O)CSc2nc3c(c(=O)[nH]2)CCCC3)cc1 | 4% | 4%
CCCN(C(=O)COC(=O)CCC(=O)c1ccccc1)c1c(N)n(Cc2ccccc2)c(=O)[nH]c1=O | -24% | -5%
CN(C(=O)c1cc2c(=O)n3ccccc3nc2n1C)c1ccccc1 | -9% | -3%
ONC(=NCc1ccccc1)c1ccccc1 | 0% | 3%
CC(OC(=O)Cn1cnc2c1c(=O)n(C)c(=O)n2C)C(=O)NC(C)c1ccc(Cl)cc1Cl (stereo not given) | -9% | -7%
COc1cccc(-n2c(=O)c3c(C)c(C(=O)N(C)C)sc3n(Cc3cccc(C)c3)c2=O)c1 | -2% | -2%
CCOc1ccc2nc(NC(=O)CN3CCOCC3)sc2c1 | -13% | -3%
CCCCN(CCCNC(=O)C1CCN(S(=O)(=O)N2CCOCC2)CC1)c1ccccc1 | ? | -27%
COc1ccc2cc(C(=O)/C=C/c3cc(OC)c(OC)c(OC)c3)ccc2c1 | -17% | -13%
Cc1cccnc1NC(=O)C1CCN(S(=O)(=O)c2ccc3ccccc3c2)CC1 | -27% | -16%
CC(C)C[C@H](N)c1cn([C@@H](CCCCN)C(=O)N2CCNCC2)nn1 | 0.5µM* | 0.79µM*
COc1ccc(N2CCN(c3cc(C)c4ccc(O)cc4n3)CC2)cc1 | ? | -18%
CCN1CCC2(CC1)NC(CO)(CO)CO2 | . | -13%
Cn1nc(C(F)(F)F)cc1-c1ccc(/C=C(\C#N)C(=O)c2cccc(C(F)(F)F)c2)s1 | i | 0%
Cc1ccc(NC(=O)CN(C(=O)N2CCN(C)CC2)S(=O)(=O)c2ccc(C)cc2)cc1 | i | -10%
Cc1ccc(OCC(O)CN2CC3(C)CC2CC(C)(C)C3)cc1 (stereo not given) | -10% | -23%
CC(C)NC(=O)CC(=O)N/N=C/c1c(F)cccc1Cl | i | -14%
CC(C)OCCCN1CC(=O)N2C(c3ccccc3)c3[nH]c4ccccc4c3C[C@H]2C1=O (stereo not given in full) | i | -16%
CC(C)CSCC1OC(n2cnc3c(N)nccc32)C(O)C1O (stereo not given) | -17% | -14%
COc1ccc(OC)c(CNCc2c(C(=O)O)n(Cc3cccc(F)c3)c3cc(OC)ccc23)c1 | -11% | -10%
CCS(=O)(=O)N1CCCC(c2nc(-c3cccc(OC)c3)no2)C1 (stereo not given) | -20% | -8%
NS(=O)(=O)c1ccc(CCNC(=O)CNC(=O)c2ccc(Oc3ccccc3)cc2)cc1 | -26% | -13%
Cc1ccc(CNC(=O)CNC(=S)N(Cc2ccccc2)Cc2cccnc2)cc1 | i | -21%
CCOc1cc(C(=O)Nc2ccccc2N2CCN(S(C)(=O)=O)CC2)cc(OCC)c1OCC | . | -15%
CC1Cc2ccccc2N1C(=O)CNCCCN(C)C (stereo not given) | . | 7%
O=C(CSc1ccc2c(c1)OCCO2)Nc1ccc(N2CCOCC2)cc1 | -11% | -14%
CC(C)(C)C(=O)c1cn(CC(=O)O)c2ccccc12 | i | -12%
O=C(COC(=O)CNC(=O)c1ccccc1F)NCCNC(=O)COC(=O)CNC(=O)c1ccccc1F | -4% | -1%
O=C(CSc1ccc(F)cc1)NCCSc1ccccc1 | -15% | -10%
O=C(CSc1n[nH]c(-c2ccccc2)n1)NC(=O)NCc1ccco1 | -12% | -14%
O=C1OC(c2ccccc2)(c2ccccc2)c2ccsc21 | i | -2%

In a second layout: results already given
Value order: VACV mCherry inh | VACV Venus inh
- COc1ccc(N2CCN(c3cc(C)c4ccc(O)cc4n3)CC2)cc1
→ ? | -18%
- CCN1CCC2(CC1)NC(CO)(CO)CO2
→ . | -13%
- Cn1nc(C(F)(F)F)cc1-c1ccc(/C=C(\C#N)C(=O)c2cccc(C(F)(F)F)c2)s1
→ i | 0%
- Cc1ccc(NC(=O)CN(C(=O)N2CCN(C)CC2)S(=O)(=O)c2ccc(C)cc2)cc1
→ i | -10%
- Cc1ccc(OCC(O)CN2CC3(C)CC2CC(C)(C)C3)cc1 (stereo not given)
→ -10% | -23%
- CC(C)NC(=O)CC(=O)N/N=C/c1c(F)cccc1Cl
→ i | -14%
- CC(C)OCCCN1CC(=O)N2C(c3ccccc3)c3[nH]c4ccccc4c3C[C@H]2C1=O (stereo not given in full)
→ i | -16%
- CC(C)CSCC1OC(n2cnc3c(N)nccc32)C(O)C1O (stereo not given)
→ -17% | -14%
- COc1ccc(OC)c(CNCc2c(C(=O)O)n(Cc3cccc(F)c3)c3cc(OC)ccc23)c1
→ -11% | -10%
- CCS(=O)(=O)N1CCCC(c2nc(-c3cccc(OC)c3)no2)C1 (stereo not given)
→ -20% | -8%
- NS(=O)(=O)c1ccc(CCNC(=O)CNC(=O)c2ccc(Oc3ccccc3)cc2)cc1
→ -26% | -13%
- Cc1ccc(CNC(=O)CNC(=S)N(Cc2ccccc2)Cc2cccnc2)cc1
→ i | -21%
- CCOc1cc(C(=O)Nc2ccccc2N2CCN(S(C)(=O)=O)CC2)cc(OCC)c1OCC
→ . | -15%
- CC1Cc2ccccc2N1C(=O)CNCCCN(C)C (stereo not given)
→ . | 7%
- O=C(CSc1ccc2c(c1)OCCO2)Nc1ccc(N2CCOCC2)cc1
→ -11% | -14%
- CC(C)(C)C(=O)c1cn(CC(=O)O)c2ccccc12
→ i | -12%

Further records:
SMILES | VACV mCherry inh | VACV Venus inh
C=Cn1ccnc1P(O)(=S)c1nc(C)c(CCOC(C)=O)s1 (stereo not given) | i | -8%
COc1ccc(N2CC(NC(=O)c3ccc4c(c3)OCO4)CC2=O)cc1OC (stereo not given) | 9% | -2%
CC(C)c1nc(SCC(=O)Nc2cccc3ccccc23)n[nH]1 | -15% | -4%
O=S(=O)(NC1CCCC1)c1ccc(Br)s1 | i | -20%
Cc1nc2ncnn2c(C)c1CCC(=O)N1CCN(c2ccccc2)CC1 | -3% | -10%
O=C(COC(=O)/C=C/c1cccc(C(F)(F)F)c1)NCc1cccs1 | i | 1%
O=c1nc2n(c3ncccc13)CCCCC2 | -14% | 2%
CCc1ccccc1NC(=O)NCc1ccc2c(c1)OCO2 | i | -8%
COc1ccc(N2CCN(C(=O)C3(C)CC3(Cl)Cl)CC2)cc1 (stereo not given) | -20% | -10%
COc1ccc(Cc2c(O)[nH]c(=S)[nH]c2=O)cc1 | -12% | -12%
CC1CCN(CCOCCOc2ccccc2Br)CC1 | -9% | 0%
CC(=O)c1cccc(NS(=O)(=O)c2cc3c(cc2C)n(C)c(=O)c(=O)n3C)c1 | -5% | 8%
O=C(COc1cccc(-n2cnnn2)c1)NCCC1=CCCCC1 | i | -1%
Cc1ccc(S(=O)(=O)N(C)C)cc1NC(=O)c1cc(S(=O)(=O)N2CCCCC2)ccc1N1CCOCC1 | -22% | -11%
Cc1nc2cccnc2n1-c1cccc(C(=O)NCCN(C)C)c1 | -1% | -1%
CCSc1nc2n(n1)C(c1ccc(Cl)cc1Cl)C(C(=O)Nc1ccccc1C)=C(C)N2 (stereo not given) | ? | ?
O=C1c2ccccc2S(=O)(=O)c2cc(C(=O)N3CCC(C(=O)N4CCCCC4)CC3)ccc21 | ? | 1.4µM*
CC(C)(C)N(Cc1ccccc1)C(=O)COC(=O)c1ccc(N2CCCC2=O)cc1 | -22% | -1%
O=C(CSc1nc(C2CC2)nc2ccccc12)N1CCc2ccccc21 | -4% | -10%
CCOC(=O)C1CCN(C(=O)Nc2ccc(OCc3ccccc3)cc2)CC1 | -2% | 3%
COc1ccccc1N(CC(=O)NCc1ccco1)S(=O)(=O)c1ccc(C)cc1 | -19% | -8%
Cc1cc(Oc2ccccc2)nc(-c2ccccc2O)n1 | -5%[1.46 µM] | -6%
NS(=O)(=O)c1cccc(NC(=O)CSc2nc3ccccc3c(=O)n2CCCN2CCOCC2)c1 | -5% | -9%
COCc1nnc(NC(=O)C2CCN(C(=O)c3ccccc3)CC2)s1 | -19% | -11%
CCCCOP(=O)(c1ccc(N(C)C)cc1)C(O)c1ccc(OC)cc1 (stereo not given) | -1% | -11%
CCN(CC)C(=O)N1c2ccccc2CC(N(CC)CC)c2ccccc21 (stereo not given) | . | -8%
O=S(=O)(c1ccc(Br)s1)N1CCN(c2ccccn2)CC1 | -19% | -16%
NNC(=O)CSCc1ccc(Cl)cc1Cl | -20% | -19%
CCC1=C(c2ccc(C)cc2)S(=O)(=O)N=C1N1CCC(C(=O)NCCc2cccc(OC)c2)CC1 | -8% | -16%
O=C(CSCCO)Nc1nccs1 | . | -8%
CCN(Cc1nc(-c2cccc(Cl)c2)no1)CC1CCCO1 (stereo not given) | i | 1%
CCN1C(=O)[C@H]2[C@@H](c3ccc(-c4ccc(F)cc4)c(OC)c3)N3CCC[C@@]3(C(=O)OC)[C@H]2C1=O | ? | -23%
O=C1NCCC/C1=N/Nc1ccc(F)cc1 | -12% | -2%
Cc1ccc(C(=O)NC2CC(C)(C)NC(C)(C)C2)cc1S(=O)(=O)N1CCOCC1 | i | -11%
COc1ccc(N2C(=O)N3[C@@H]4c5ccccc5OC[C@@H]4[C@@H](c4ccccc4)[C@@]3(C)C2=O)cc1 | -14% | -21%
COC(=O)c1cc(S(=O)(=O)N2CCN(C3CCCCC3)CC2)c[nH]1 | -8% | -16%
CC(=O)Nc1ccc(NC(=O)CNC(=O)c2cccc(C)c2)cc1 | -3% | -1%
O=S(=O)(NCc1ccc2c(c1)OCO2)c1ccc(Cl)s1 | i | -14%
CCOC(=O)C1=C(COC(=O)COc2ccccc2OCC)NC(=O)NC1C (stereo not given) | i | -7%
CCN1CCc2nc3ccccc3c(C(=O)Nc3ccc(NC(C)=O)cc3)c2C1 | -7%[7.34 µM] | -6%[7.34 µM]
Cc1cc(OCc2cc(C(=O)N3CCC(Oc4cccnc4)CC3)no2)cc(C)c1Cl | -10% | -25%
CCC(C)c1ccc(NC(=S)NCc2cccnc2)cc1 (stereo not given) | i | -13%
CC1CCc2c(C(=O)NCCN3CCOCC3)csc2C1 (stereo not given) | -19% | -12%
C=C1C=C(C(F)F)n2ncc(C(=O)NCc3ccc(Cl)cc3)c2N1 | -9% | -20%
CCOC(=O)COc1cc(N2C(=O)CSCC2=O)c(Cl)cc1Cl | -4% | -2%
